VDR inh – Inhibitors of the vitamin D receptor (VDR): qHTS | hit rate 0.93% among 400,000 | Vitamin D3 receptor (Homo sapiens), P11473 | Potency, µM, for the others: max response, negative = inhibition, usual class: inhibitors | VDR-SRC2-3 peptide fluorescence polarization, 2 h | AID 504847, 2011; active = well fitted inhibition curve with a large enough effect; inconclusive = small, poorly fitted or top-dose-only effect, or another doubt; inactive = no such curve, though single readings can be large or run the other way; note: series mostly up to about 120 µM
Target sequence (P11473 whole entry, looked up): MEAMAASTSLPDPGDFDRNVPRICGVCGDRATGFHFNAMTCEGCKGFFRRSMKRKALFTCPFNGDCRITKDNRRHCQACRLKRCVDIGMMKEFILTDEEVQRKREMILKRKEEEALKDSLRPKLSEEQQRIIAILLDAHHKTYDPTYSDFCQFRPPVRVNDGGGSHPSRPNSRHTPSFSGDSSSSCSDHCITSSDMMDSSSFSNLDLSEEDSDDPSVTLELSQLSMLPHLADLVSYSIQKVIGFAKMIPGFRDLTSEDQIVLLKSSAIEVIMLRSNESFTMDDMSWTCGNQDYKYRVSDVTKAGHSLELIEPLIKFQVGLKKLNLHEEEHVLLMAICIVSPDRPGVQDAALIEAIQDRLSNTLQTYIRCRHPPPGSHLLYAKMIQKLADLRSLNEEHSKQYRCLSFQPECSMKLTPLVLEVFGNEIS
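Compounds are added to VDR with labelled SRC2-3 coactivator peptide and held 2 h at room temperature. Inhibition of the VDR–peptide interaction is then read as a change in fluorescence polarization.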
Starred values were filed as active, the others as inactive; ? = inconclusive; & = joins results of further samples. % is set by controls: 0 for no effect and ±100 for the full control effect; potency is the fitted concentration of half-maximal effect. Not all compounds are listed; count on the stated rates, not on these rows.

SMILES	VDR inh
COc1ccc(C(=O)Nc2ccc(NC(=O)c3cccc(OC)c3)cn2)cc1	-8%
O=C(NCCc1csc(-c2ccc(Cl)cc2)n1)c1ccco1	-2%&4%
O=C(CCn1nc(-c2ccc(Cl)cc2)ccc1=O)N1CCN(c2ccc(F)cc2)CC1	-11%
COC(=O)c1c(C)c2c(c(C)c1O)OC(=O)c1c(C)c(Cl)c(O)c(Cl)c1O2	?
COCCCNC(=S)NNC(=O)c1csc2ccccc12	9%
CCCCn1c(SCn2nnc3ccccc3c2=O)nc2cc(S(N)(=O)=O)ccc21	3%
COc1cc(NC(=O)CSc2nc(-c3ccc(C)cc3)nc3c2Cc2ccccc2O3)cc(OC)c1	-11%
COC(=O)c1cccc(C(=O)N2CCCC(CNC(=O)c3ccccc3Cl)C2)c1 (stereo not given)	-9%
CC[C@H](C)[C@H](NC(=O)[C@H](C)NC(=O)CNC(=O)[C@H](CCCN=C(N)N)NC(=O)[C@H](C)NC(=O)[C@H](CC(C)C)NC(=O)[C@H](CCC(=O)O)NC(=O)[C@H](CC(C)C)NC(=O)[C@H](C)NC(=O)[C@@H](N)CCC(=O)O)C(=O)N[C@@H](Cc1ccccc1)C(=O)N[C@@H](CCC(N)=O)C(=O)N[C@@H](C)C(=O)O	-4%
CCOC(=O)c1ccc(S(=O)(=O)N2CCN(c3nc(-c4cccs4)nc4ccccc34)CC2)cc1	-6%
Cc1nnsc1C(=O)N1CCN(c2ccc(C#N)cn2)CC1	-6%
CNS(=O)(=O)c1ccc(NC(=O)Nc2cccc(F)c2)cc1	10%
CCOC(=O)C1CCCN(C(=S)Nc2cccc(Cl)c2C)C1 (stereo not given)	-28%
O=C(O)c1n[nH]nc1-c1ccccc1	15%
Cc1ccc(C)c(NC(=O)Cn2nnc(C(=O)NCc3cccs3)c2N)c1	-2%
Cn1nc(C(=O)NCc2ccc(Cl)cc2)c2c1-c1ccccc1SC2	10%
COc1ccccc1/C=C/CN1CCSCC1	-15%
COc1ccccc1CNC(=O)c1ccc2c(=O)n(CCCN3CCCC3=O)c(=S)[nH]c2c1	-8%
Cc1nn(-c2ccccc2)c(C)c1/C=N/n1c(-c2ccncc2)n[nH]c1=S	-10%
CC(=O)N1CC(C)Sc2ccc(S(=O)(=O)NC3CCCCC3)cc21 (stereo not given)	4%
CCOc1ccc(NC(=O)Cn2c(=O)n(-c3ccccc3)c(=O)c3ccc(C(=O)NCc4ccc5c(c4)OCO5)cc32)cc1	3%
COCCn1cc(C(=O)NCc2ccco2)c2c3ccccc3n(C)c2c1=O	2%
COc1cccc(C2C(=O)c3ccccc3C2=O)c1	-7%
CCN(C(=O)COC(=O)/C(C#N)=C/c1ccc(N(C)C)cc1)C1CCS(=O)(=O)C1 (stereo not given)	-14%
CC1=CC2=NC(=O)CC(C)(C(=O)N(CC(=O)NC3CCCC3)c3cc(C)cc(C)c3)N2C=C1 (stereo not given)	?
Cc1nn(CC(=O)NCc2ccco2)c(C)c1[N+](=O)[O-]	18%
COc1cc(OC)cc(-c2c(-c3cccs3)c3cc(-c4cnc(OC)nc4)ccc3n2C)c1	1%
CCCCCCCCCCOC(=O)Cn1c(COc2cccc(OC)c2)[n+](C)c2ccccc21	-9%
COc1ccc(NC(=O)c2ccc(F)cc2)cc1S(=O)(=O)Nc1cc(C)ccc1Br	20%
O=C(CCC(=O)c1cccs1)NCc1ccc(Cl)cc1	-10%

Reprinted at random: two records from the list
SMILES	VDR inh
COCCn1cc(C(=O)NCc2ccco2)c2c3ccccc3n(C)c2c1=O	2%
COc1ccc(NC(=O)c2ccc(F)cc2)cc1S(=O)(=O)Nc1cc(C)ccc1Br	20%

Next part.
SMILES	VDR inh
OC(CNCCc1ccc(C(F)(F)F)cc1)COC(c1ccccc1)c1ccccc1 (stereo not given)	5%
CC(=O)C1=C(O)C(=O)N(c2ccc(O)cc2)C1c1ccc(C)cc1 (stereo not given)	14%
CC1CCCC(C)N1C(=O)c1cc(F)c(F)cc1Cl (stereo not given)	7%
CC[C@H]1C(c2cccc(Cl)c2)=NN(c2ccccc2)[C@@H]1CO	?
Cc1ccc(S(=O)(=O)NCC(=O)NCC(=O)OCC(=O)NC(=O)NC(C)(C)C)cc1C	-10%
Cc1ccc(NS(=O)(=O)c2ccc3c(c2)c(=O)n(C)c(=O)n3C)cc1F	13%
Cc1cc(C)n(CCC(=O)Nc2ccc3c(c2)OCCO3)n1	10%
C/C(N)=C(/C#N)C(=O)CSc1nnc(-c2ccccc2)n1C	1%
COC(=O)c1ccc(NC(=O)CNC(=O)C2CCCCC2)c(C)c1	-6%
Cc1ccc(Nc2c(-c3ccco3)nc3ccc(C)cn23)cc1	0%
CCc1ccc(Nc2ncc3c(n2)CC(C)(C)CC3=O)cc1	8%
COc1cc(CN2CCSCC2)cc(OC)c1OC	1%
CCN(CC)C(=O)[C@H]1CC(CC(=O)NC/C=C(\C)CCC=C(C)C)C(=O)N2CCc3c([nH]c4ccccc34)[C@]12C (stereo not given in full)	-2%
O=C(c1cccs1)N1CCC(c2ccccc2)C1 (stereo not given)	-1%
O=C(O)C1CCCN1S(=O)(=O)c1ccc2[nH]c(=O)c(=O)[nH]c2c1 (stereo not given)	-7%
O=C(Nc1ccccc1N1CCOCC1)c1ccc(N2CCCC2=O)cc1	-5%
Cc1nnc(NC(=O)C2=COCCO2)s1	-5%
Cn1cccc1C(=O)N1CCC[C@@]2(CCN(Cc3cc(C(F)(F)F)cc(C(F)(F)F)c3)C2)C1	?
NC(=O)COC(=O)c1ccccc1Nc1ccc(SC(F)F)cc1	-16%
O=C(CSc1cccs1)Nc1ccc(Cl)cc1	6%
Cc1cc[n+](-c2nc3ccccc3nc2[N-]S(=O)(=O)c2ccccc2)cc1	17%
COc1ccc(OCc2nnc(SCC(=O)O)n2N)cc1	-10%
CCOc1ccc(NC(=O)CSc2ncnc3c2sc2ccccc23)cc1	13%&-4%
COc1ccccc1NC(=O)c1ccccc1Oc1ccccc1	-1%
Cc1ccc(NC(=O)CN(C)C(=O)C2CCC2)cc1	-6%
COc1cc(OC)c(OC)cc1/C=C1\Oc2cc(OS(C)(=O)=O)ccc2C1=O	-13%
NC1=NC(=O)C(CC(=O)Nc2ccc3c(c2)OCO3)S1 (stereo not given)	5%
COc1ccc(/C=C/C(=O)NC(=S)NNC(=O)[C@H]2C[C@@H]2c2ccccc2)cc1OC	-20%
COc1ccccc1NS(=O)(=O)c1ccc(N/N=C/C=C/c2ccccc2[N+](=O)[O-])c([N+](=O)[O-])c1	6%
N#Cc1cccc(C(c2nnnn2C2CCCC2)N2CCC(Cc3ccccc3)CC2)c1 (stereo not given)	-8%
NC(=O)C1CCN(C(=O)c2cccc(NC(=O)c3nsc4ccccc34)c2)CC1	-6%
O=C(O)c1cc2cc(S(=O)(=O)O)ccc2cc1O	4%
CSc1ccc(/C=N/NC(=O)CNc2ccc3ccccc3c2)cc1	3%
COc1ccccc1/C=N/NC(=O)c1cccc(OC(F)(F)C(F)F)c1	-9%
COC(=O)c1sc2cccc(F)c2c1S(=O)(=O)Nc1ccc(N(C)C)cc1	0%
Cc1cccc(NC(=S)N2CCCCCC2)c1	2%
CCCN(CCC)S(=O)(=O)c1ccc(C(=O)Nc2nnc(COC)o2)cc1	-17%
Cn1c(=O)[nH]c(=O)c2c1nc(N1CCN(C(c3ccccc3)c3ccccc3)CC1)n2CCO	-9%
CN(C)c1ccc(/C=C(\C#N)c2ccccn2)cc1	0%
Cc1ccc(Cn2c(SCc3ccc(C(=O)NC4CCCC4)cc3)nc3ccncc32)cc1	1%
COc1ccc(Cn2c(C)nc3c(c2=O)c2nc4ccccc4nc2n3Cc2ccco2)cc1	?
CCc1ccc2n(-c3ccc(OC)cc3)c([S-])c(C(=O)Nc3cc(C)cc(C)c3)[n+]2c1	13%
CCc1ccc(-c2nc(C)c(CCO)c(=O)[nH]2)cc1	-8%
N[C@@H](CO)c1cn([C@@H](Cc2cc3ccccc3[nH]2)C(=O)N2CCNCC2)nn1	7%
COc1ccc(NC(=O)CCSc2nc(-c3ccc(OC)cc3)cc(C(F)(F)F)n2)cc1	-11%
COc1ccccc1Nc1nnc(C)c(=O)[nH]1	-12%
COCCn1c(=S)[nH]c2cc(C(=O)N3CCN(c4cccc(Cl)c4)CC3)ccc2c1=O	24%
Cc1cc(C(C)(C)CC(C)(C)C)ccc1OCCOCC[N+](C)(C)Cc1ccccc1	-18%&73%&1%
Cc1nn(CC(=O)Nc2ccc3c(c2)oc2ccccc23)c(=O)c2ccccc12	-7%
COc1ccccc1N1CCN(C(=O)CN(Cc2ccc(Cl)cc2)S(C)(=O)=O)CC1	-5%
CC(=O)c1cc(NC(=O)c2ccccc2)c(=O)oc1/C=C/N(C)C	11%
C=CCn1c(SCC(=O)NC(=O)Cc2ccccc2)nc2ccccc2c1=O	0%
CNC(=O)c1cc(Nc2nnc(-c3ccc(C)c(S(N)(=O)=O)c3)c3ccccc23)ccc1OC	-18%
CN(c1cccc(NC(=O)CSc2ccc(Cl)cc2)c1)S(C)(=O)=O	-6%
CCCOc1ccc(/C=N/NC(=S)Nc2ccccc2[N+](=O)[O-])c(O)c1	-5%
Cc1nn(C)c2c1c(C(F)(F)F)cc(=O)n2C(C)C(=O)N1CCN(c2ccccc2)CC1 (stereo not given)	27%
CN1CC(c2ccccc2)Oc2ccccc2C1=S (stereo not given)	-1%
CCN(C(=O)c1cccc(F)c1)c1ccccc1C	7%
Cc1cccc(OCC(=O)O/N=C(\N)c2ccc(Br)cc2)c1	5%
c1csc(CN2CCN(Cc3cccs3)C2c2cccs2)c1	-9%
Remaining list, next part.
SMILES	VDR inh
CC(C)=NN1C(=O)c2ccccc2NC1(C)C	-10%
COC(=O)N/N=C/c1ccc(OCCSc2ccc(Cl)cc2)c(OC)c1	8%
O=C(CSc1nc2cc(Cl)ccc2s1)N1CCN(C(=O)c2ccco2)CC1	7%
O=S(=O)(c1ccc(Cl)cc1)N1CCC(O)(CN2CCN(Cc3ccccc3)CC2)CC1	-8%
Cc1cccc(C)c1-n1nnnc1S(=O)(=O)Cc1ccccc1Cl	4%
Cc1nc2c(cc(Oc3ccc(S(=O)(=O)N4CCOCC4)cn3)c3ccsc32)s1	-6%
Cc1ccc(S(=O)(=O)n2oc(=O)c(C3CCCCC3)c2N)cc1	-6%
CC(Sc1ncn[nH]1)C(=O)Nc1cc(C(F)(F)F)ccc1Cl (stereo not given)	-7%
COc1ccc(CCNC(=O)COC(=O)COc2ccc(Cl)cc2)cc1OC	-9%
CCS(=O)(=O)c1ccc2oc(SCC(=O)NCc3ccccc3)nc2c1	9%
O=C(NCCCc1ccc(F)cc1)C1CCC(=O)N(CC2CCCCC2)C1 (stereo not given)	13%
COc1ccc(-c2cc3c(=O)n(CC(=O)NCc4ccccc4OC)ncn3n2)cc1	-4%
CCC1CCCCN1CCCNC(=O)c1ccc(CS(=O)(=O)Cc2ccccc2F)o1 (stereo not given)	-10%
Cc1ccc(Cn2ccc(=O)c(OCc3c(Cl)cccc3Cl)c2C)cc1	5%
Cn1nc([N+](=O)[O-])nc1Sc1ccc(Cl)cc1	9%
CCOC(=O)[C@H]1[C@H]2COc3ccc(C)cc3[C@@H]2N2C(=O)CN(CC3CCCO3)C(=O)[C@@]12C (stereo not given in full)	-7%
O=C(NNC(=O)c1ccc(Cl)cc1Cl)Nc1ccccc1	4%
CCCCCC(=O)Nc1ccc2oc(-c3cccnc3)nc2c1	3%
C=CCN(C(=O)c1ccccn1)C(C(=O)NCc1ccccc1)c1ccccc1F (stereo not given)	-12%
CCOc1cc(C(=O)NC2CC(C)(C)NC(C)(C)C2)cc(OCC)c1OCC	0%
Cc1ccn2c(=O)cc(CSc3nnc(C)s3)nc2c1	13%
Fc1ccc(CNc2ncnc3c2cnn3-c2ccccc2)cc1	8%
Cc1ccc(C2=CN(Cc3ccccc3)CCC2=O)cc1	7%
CN(Cc1ccon1)Cc1cn(C)nc1-c1cccc(Cl)c1	12%
COc1cc(CNCCCSc2nnnn2C)cc(Br)c1OC	3%
Cc1ccc(Nc2c3c(nc4ccccc24)CCC3)cc1F	5%
CCOc1ccc(-n2cc(C(=O)NCc3ccco3)c3cc(OC)c(OC)cc3c2=O)cc1	-12%
CNC(=O)COC(=O)c1cc(-c2ccco2)nc2ccccc12	?

Filtered by structure, those above containing two or more sulfur atoms (13)
SMILES	VDR inh
COCCCNC(=S)NNC(=O)c1csc2ccccc12	9%
CCCCn1c(SCn2nnc3ccccc3c2=O)nc2cc(S(N)(=O)=O)ccc21	3%
CCOC(=O)c1ccc(S(=O)(=O)N2CCN(c3nc(-c4cccs4)nc4ccccc34)CC2)cc1	-6%
CC(=O)N1CC(C)Sc2ccc(S(=O)(=O)NC3CCCCC3)cc21 (stereo not given)	4%
O=C(CSc1cccs1)Nc1ccc(Cl)cc1	6%
CCOc1ccc(NC(=O)CSc2ncnc3c2sc2ccccc23)cc1	13%&-4%
COC(=O)c1sc2cccc(F)c2c1S(=O)(=O)Nc1ccc(N(C)C)cc1	0%
CN(c1cccc(NC(=O)CSc2ccc(Cl)cc2)c1)S(C)(=O)=O	-6%
c1csc(CN2CCN(Cc3cccs3)C2c2cccs2)c1	-9%
O=C(CSc1nc2cc(Cl)ccc2s1)N1CCN(C(=O)c2ccco2)CC1	7%
Cc1nc2c(cc(Oc3ccc(S(=O)(=O)N4CCOCC4)cn3)c3ccsc32)s1	-6%
CCS(=O)(=O)c1ccc2oc(SCC(=O)NCc3ccccc3)nc2c1	9%
Cc1ccn2c(=O)cc(CSc3nnc(C)s3)nc2c1	13%

High-throughput results from PubChem.
